# BasE inh – inhibitors of Acinetobacter baumannii siderophore enzyme BasE. hit rate 0.1% among 84,000. inhibition, % (test concentration not listed). purified BasE, fluorescence polarization binding displacement. AID 485350;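 active = both replicates above 25% with normal brightness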;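 note: 0% = negative plate control signal and 100% = positive plate control signal; stock transfer was 100 nL into about 30 µL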
# LANA-nucl inh – LANA-nucleosome interaction inhibition; FITC-LANA1-23 / chicken nucleosome fluorescence polarization; stronger effect = lower value; z-score (test concentration not listed); hit rate 0.3% among 51,000; AID 720717;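 active = both repeat wells score below -2 in polarization z-score versus plate sample wells, excluding overly bright wells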;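 note: 100 nL library stock added to about 30 µL; numbers are from one replicate; some results filed as inactive read as strong as hits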
#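 System – purified chicken nucleosomes with FITC-labelled LANA N-terminal peptide (1-23) · Amount – 240 nM purified chicken nucleosomes (480 nM peptide binding sites), final · Also added – 50 nM FITC-LANA1-23 probe · Medium – TEN-BT buffer, pH 7.5 · Incubation – compound with peptide–nucleosome mix 10–45 min at room temperature · Detection – fluorescence polarization, ex 480 nm, em 535 nm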
# The depositor's hits bear a star; x = no result given. Only part of the results is shown (hit frequency here may not be typical).
# Preview:
SMILES,BasE inh,LANA-nucl inh
CCOC(=O)C1CCCN(C(=O)COc2ccc(N(C)S(=O)(=O)c3ccc(F)cc3)cc2)C1 (stereo unspecified),4.2,x
CC(C)CN(C(=O)CSc1nc2ccccc2[nH]1)c1c(N)n(CC(C)C)c(=O)[nH]c1=O,1.5,x
COCc1c(Br)c(C)nc2sc3c(=O)[nH]nnc3c12,0.9,0.013
CCN1/C(=C2\C(=O)N(c3ccccc3)N=C2C)C=Cc2ccccc21,1.4,x
O=S(=O)(c1ccc(Cl)c2ccccc12)N1CCCC1,1.1,-0.9
O=C(Cn1nc(-c2ccco2)ccc1=O)Nc1ccccc1Cl,1.5,0.35
O=C(Sc1ccc(Cl)cc1)c1cnc2n(c1=O)CCS2,3.0,-0.92
CCn1c(=N)n(CC(=O)c2ccc(-c3ccccc3)cc2)c2ccccc21,1.3,1.7
COc1ccccc1N1CCN(S(=O)(=O)c2ccc(S(=O)(=O)NC3CCCC3)cc2)CC1,-0.9,-0.004
O=C1N[C@H](C(=O)O)CS1,x,0.66
O=C(O)CCn1cc(C(=O)O)c(-c2ccccc2)n1,3.5,x
O=C(NCc1ccco1)c1ccc(S(=O)(=O)N2CCCc3ccccc32)cc1,1.1,0.56
Cc1[nH]c(-c2ccc(F)cc2)cc1C(=O)NC1CCCC1,1.2,-0.21
COc1ccc2c(Cl)c(-c3nnco3)sc2c1,0.5,x
CC(=O)N(C(C)=O)N1C(=O)c2cccc3c(N4CCOCC4)ccc(c23)C1=O,17,x

# Results, previewed entries included:
SMILES,BasE inh,LANA-nucl inh
CCOC(=O)C1CCCN(C(=O)COc2ccc(N(C)S(=O)(=O)c3ccc(F)cc3)cc2)C1 (stereo unspecified),4.2,x
CC(C)CN(C(=O)CSc1nc2ccccc2[nH]1)c1c(N)n(CC(C)C)c(=O)[nH]c1=O,1.5,x
COCc1c(Br)c(C)nc2sc3c(=O)[nH]nnc3c12,0.9,0.013
CCN1/C(=C2\C(=O)N(c3ccccc3)N=C2C)C=Cc2ccccc21,1.4,x
O=S(=O)(c1ccc(Cl)c2ccccc12)N1CCCC1,1.1,-0.9
O=C(Cn1nc(-c2ccco2)ccc1=O)Nc1ccccc1Cl,1.5,0.35
O=C(Sc1ccc(Cl)cc1)c1cnc2n(c1=O)CCS2,3.0,-0.92
CCn1c(=N)n(CC(=O)c2ccc(-c3ccccc3)cc2)c2ccccc21,1.3,1.7
COc1ccccc1N1CCN(S(=O)(=O)c2ccc(S(=O)(=O)NC3CCCC3)cc2)CC1,-0.9,-0.004
O=C1N[C@H](C(=O)O)CS1,x,0.66
O=C(O)CCn1cc(C(=O)O)c(-c2ccccc2)n1,3.5,x
O=C(NCc1ccco1)c1ccc(S(=O)(=O)N2CCCc3ccccc32)cc1,1.1,0.56
Cc1[nH]c(-c2ccc(F)cc2)cc1C(=O)NC1CCCC1,1.2,-0.21
COc1ccc2c(Cl)c(-c3nnco3)sc2c1,0.5,x
CC(=O)N(C(C)=O)N1C(=O)c2cccc3c(N4CCOCC4)ccc(c23)C1=O,17,x
COC(=O)C1Cc2ccccc2CN1Cn1c(SC)nc2ccccc21 (stereo unspecified),2.3,x
CCOc1ccc(CNC(=O)C2CCCN(c3nnc(-n4cccc4)s3)C2)cc1 (stereo unspecified),1.0,-1.4
CCCCn1c(=O)[nH]c(=O)c2c1nc(CN1CCN(S(=O)(=O)c3ccccc3)CC1)n2CC,-0.8,x
O=C(O)c1ccc(NNC(=S)NCC2CCCO2)cc1 (stereo unspecified),-3.9,x
CNC(=S)N1N=C2c3ccccc3CCC2C1c1ccc(OC)cc1 (stereo unspecified),1.5,x
Cc1nc(C(F)(F)F)c(-c2ncn(-c3ccccc3)n2)s1,x,0.53
Cc1nn(-c2ccccc2)c2c1N(CCCC(=O)NC1CCCCC1)C(=O)CS2,-0.8,0.89
O=c1c(-c2ccccc2)c1-c1ccccc1,x,0.4
CCCc1cc(C(=O)Nc2nnc(CC)s2)sc1C,1.8,x
O=C(CC1CCCC1)NCCS(=O)(=O)N1CCN(c2ccccc2)CC1,1.4,0.61
CC(=O)Nc1ccc(NC(=O)c2cccc(C)c2)cc1,-0.6,-0.63
O=C(OCC(=O)N1CCCCC1)c1cc(=O)[nH]c(=O)[nH]1,1.0,x
CC1(C)CC(=O)C=C(NCCCc2[nH]nc(N)c2C#N)C1,-3.6,x
Cc1cc2c3c(c1)C1(C(=O)N3C(C)(C)CC2C)C(C#N)=C(N)Oc2n[nH]c(C)c21 (stereo unspecified),-0.7,0.78
CC(=O)N/N=C/c1ccc(-c2cc(C(F)(F)F)n(C)n2)s1,1.5,0.96
CCC(C)NC(=O)CSc1nc2n[nH]c(C)c2c(=N)n1-c1ccccc1Cl (stereo unspecified),-0.9,-0.68
CC(C)n1c(O)c(N=NC(=O)c2ccc(O)cc2)c2ccccc21,6.9,x
Clc1cnc(Cl)c(Cl)c1,-0.3,0.65
COc1ccc(N2CCN(C(=O)c3cccnc3Nc3ccccc3F)CC2)cc1,2.2,x
O=C(CN1c2cccc3cccc(c23)S1(=O)=O)N1CCCCCC1,-1.9,x
CN(C)c1ccc(C(=S)N2CCNCC2)cc1,-0.4,1.3
COc1ccc(C(=O)N2CCN(c3ncnc4cc(-c5ccccc5)sc34)CC2)cc1OC,3.8,x
Cc1cc(C(C)(C)C)oc1C(=O)O,3.2,-0.66
O=C1OCC(CO)(CO)N=C1NNc1ccccc1,0.7,x
CCNC(=O)CSc1nnc(-c2cccc(S(=O)(=O)N(CC)CC)c2)n1-c1ccccc1,-0.2,x
CCOC(=O)c1c(-c2ccccc2)c2oc3ccccc3c2[nH]c1=O,1.3,x
Cn1c2c(c(=O)[nH]c1=O)C1(O)C(=O)c3ccccc3C1(O)N2 (stereo unspecified),-0.7,1.4
CN(C)C(CNC(=O)c1ccccn1)c1ccco1 (stereo unspecified),3.3,x
COC(=O)c1cccc(-c2ccc(C=C3C(=O)OC(c4ccccc4)OC3=O)o2)c1 (stereo unspecified),11,x
Cc1ccc(S(=O)(=O)NCC(=O)NC2CCCCCC2)cc1,0.4,0.33
NS(=O)(=O)c1ccc(N=NSCCO)cc1,-0.1,0.83
CNc1ccnc(C(=O)O)c1,0.8,-0.3
COCCn1c(C)cc(C(=O)COC(=O)c2cc(-c3ccco3)nc3ccccc23)c1C,0.9,x
O=C1CCCC(O)=C1C=Nc1ccc(N=CC2=C(O)CCCC2=O)cc1,-4.1,1
COc1ccc(C(=O)N2CCN(Cc3ccc(OC)c(OC)c3OC)CC2)cc1,0.1,-0.81

# Next section.
SMILES,BasE inh,LANA-nucl inh
COc1ccc(Cc2nnc(SCC(=O)NC(C)C)n2-c2ccc(F)cc2)cc1OC,1.6,x
Cc1ccc(Cl)cc1N1CCN(CCCNc2ncnc3c2nc2n3CCCCC2)CC1,-2.2,-0.5
CC1CC(C(F)F)n2nc(C(=O)Nc3sc4c(c3C#N)CCC(C(C)(C)C)C4)nc2N1 (stereo unspecified),1.4,-0.99
CN1CCN(/C=C/C(=O)C(F)(F)F)CC1,-0.9,x
CC(C)CN(CC(C)C)CN1CC(COc2cccc3ccccc23)OC1=O (stereo unspecified),-0.7,0.087
Cc1ccc(-c2nc(N)sc2CC(=O)OCC(=O)N(C)C2CCS(=O)(=O)C2)cc1 (stereo unspecified),0.2,x
CCCNC(=O)c1cc(C)no1,0.1,-0.79
CC(C)COC(=O)Nc1cccc2ccccc12,-0.7,0.82
O=C(O)c1ccc(/C=c2/sc3nc4ccccc4n3c2=O)cc1,-0.5,0.12
NC(=O)c1cc(S(=O)(=O)N(Cc2ccco2)C2CCCCC2)cs1,0.2,x
NC(=O)CN(c1ccccc1)S(=O)(=O)c1ccc(F)cc1,2.0,0.53
CCN(c1ccc(C(=O)CSc2nnc(-c3cccs3)n2C2CC2)cc1)S(C)(=O)=O,-0.4,x
CCOC(=O)c1ccc(N=Cc2c(O)[nH]c(=O)[nH]c2=O)cc1,-0.7,x
CN(C)S(=O)(=O)c1ccc2nnn(OCCOc3cccc(Br)c3)c2c1,2.4,x
CSc1ccc(C=C2C(=O)OC(C)(C)OC2=O)s1,2.4,-0.94
CC(=O)N1CCN(C(=O)/C=C/c2ccc(Br)cc2)CC1,1.6,x
CCCN1CCC(=NNc2c(Cl)cc(Cl)cc2Cl)CC1,-0.1,x
CCCCOc1ccc(-n2c(N)c(C#N)c3nc4ccccc4nc32)cc1,1.3,x
Cc1ccccc1CNC(=O)C1CCN(C(=O)c2sccc2-n2cccc2)CC1,0.3,-0.54
NC(=O)N/N=C/c1ccc(/C=N/NC(N)=O)cc1,-0.1,-0.7
O=C(CSc1nccc(=O)[nH]1)Nc1ccc(Cl)cc1,3.3,-0.95
CCC(C)C(=O)NCc1ccc(C)cc1 (stereo unspecified),2.0,-0.27
O=C1C=CC(=NS(=O)(=O)c2ccc(C(=O)O)cc2)C=C1,9.7,0.21
CCOC(=O)c1c(C)[nH]c(/C(C)=N/NC(=O)Cn2nc(C)cc2C)c1C,-3.9,x
Cc1cccc(OCCC(=O)NCC2(N3CCOCC3)CCCCC2)c1,-0.3,x
Cc1ccc(Nc2nc(C(=O)N3CCC(C(=O)NCCN4CCOCC4)CC3)cs2)cc1,0.9,0.31
CS(=O)(=O)Nc1ccc(Cl)cc1C(=O)c1ccccc1,2.4,x
Cc1ccc(Cn2c(=O)c3ccccc3n3c(SCC(=O)N4CCCC4)nnc23)cc1,1.7,x
N#CCC(=O)NC(=O)c1cc2ccccc2oc1=O,0.2,-0.48
CC(C)(C)C(=O)/C=C1\SCC(=O)N1CC(=O)N1CCN(c2ccccc2)CC1,0.1,x
Cc1cc(=O)[nH]c(SCC(=O)Nc2nnc(CC(C)C)s2)n1,2.1,-0.87
CC(O)c1ccc(C(C)O)cc1 (stereo unspecified),3.7,-0.57
O=c1[nH]c(Nc2nc3ccccc3o2)nc2ccccc12,0.4,0.006
Cc1cc(C(=O)CSc2nc(-c3ccccc3)cn2N)c(C)n1Cc1ccc2c(c1)OCO2,-1.0,x
CC(NC(=O)Cn1cc(S(=O)(=O)N(C)C)ccc1=O)c1ccc2c(c1)OCCO2 (stereo unspecified),1.1,x
Cc1cccc(C)c1-n1c(SCC(=O)Nc2cccc(C#N)c2)nnc1-c1cccc(S(=O)(=O)N(C)C)c1,3.8,x
c1ccc(-n2nc(SCC3COc4ccccc4O3)nc2C2CC2)cc1 (stereo unspecified),-1.4,x
COc1cc2c(cc1OC)C(c1ccccc1)N(C(=O)CSc1nnc(-c3c[nH]c4ccccc34)o1)CC2 (stereo unspecified),0.4,x
NS(=O)(=O)c1ccc(NNC(=O)c2c(F)cccc2Cl)cc1,1.2,-1.3
Cc1ccccc1CN(C)CC(=O)NC(=O)NC1CCCCC1,-1.1,x
Cc1ccccc1Nc1nc(N)nc(COC(=O)Cc2ccc(Cl)cc2)n1,1.6,x
CCN1CCN(Cc2ccc3c(c2)Cc2ccccc2-3)CC1,-10.0,0.7
CCc1c(C#N)c(N)nc(SCC(=O)c2ccccc2)c1C#N,1.1,x
OCc1nccn1C(F)F,2.1,x
CCOC(=O)Cc1c(Cl)c2ccccc2[nH]c1=O,-3.6,-0.54
NC(=S)c1ccc(-c2cccs2)s1,3.2,x
Cc1ccc2c(C)c(CCC(=O)O)c(=O)oc2c1,3.0,x
Nc1n[nH]c(Cc2nc3ccccc3[nH]2)n1,2.7,0.88
Cc1occc1C(=O)Nc1ccc(Cl)cc1F,0.2,x
CC1CCc2onc(C(=O)N3CCCCC3)c2C1 (stereo unspecified),1.5,x

# (more compounds)
SMILES,BasE inh,LANA-nucl inh
Cc1noc(C)c1CSC1=N/C(=C\c2ccco2)C(=O)N1c1ccc(OC(F)F)cc1,0.4,x
Cc1cnc(C(=O)OCCOc2ccc(Br)cc2)cn1,-0.8,x
Cc1nc2ccc(C(=O)OCc3ccccc3)cc2nc1C,6.2,-0.15
CC(C)NS(=O)(=O)c1ccc(N2C(=O)CC3(CCCC3)C2=O)c(Cl)c1,1.6,x
O=C(COc1ccccc1)Nc1ccccc1Cl,-1.0,x
CCc1[nH]nc2c1C1(C(=O)N(CC)c3ccccc31)C(C#N)=C(N)O2 (stereo unspecified),-1.0,-0.25
CCc1ccc(-n2c(SCC(=O)NCc3ccco3)nc3n[nH]c(C)c3c2=N)cc1,-0.1,-0.86
CC(C)NC(=O)C1CCN(S(C)(=O)=O)CC1,0.6,0.81
O=C(NCc1cccs1)c1cc2c(s1)CCCC2,-0.2,x
CC(=O)Nc1cccc(-n2nnc(SCC(=O)c3ccccc3)n2)c1,-1.1,x
CCS(=O)(=O)Nc1ccc(Cc2ccncc2)cc1,4.3,-0.94
Cn1c(CC(=O)NN)nc2ccccc21,2.5,x
CCCN1C2CCCC1CC(NC(=O)Nc1ccccc1C(F)(F)F)C2 (stereo unspecified),-0.5,-0.59
COc1cccc(NC(=O)N2CCC(CN3CCCCCC3)CC2)c1,0.5,-1.2
N#Cc1c(N(S(=O)(=O)c2ccccc2)S(=O)(=O)c2ccccc2)sc2c1CCCC2,2.4,-0.88
CCOC(=O)c1cc[nH]c1C,-0.6,x
COc1ccc(S(=O)(=O)N2CCC(N(C)C(C)C)CC2)cc1,1.5,0.17
N#C/C(=C\c1cn(CC(=O)N2CCCC2)c2ccccc12)C(=O)NC1CC1,1.1,-0.36
O=C(NCCO)c1cc2cc(Cl)ccc2o1,3.2,-0.81
CN(C)CCO/N=C(\c1ccccc1)c1ccncc1,-0.6,-0.93
CC1CCCC(C)N1/N=C/c1ccc(C(=O)O)cc1 (stereo unspecified),-3.6,x
CNCc1c(C)nn(-c2ccccc2)c1C,0.7,x
CCOC(=O)c1ccc2c(c1)nc(C)n2CC,-4.5,1.3
CC(C)CCN(C)C1CCN(C(=O)Nc2ccccc2)CC1,-0.3,0.26

# Screens: PubChem BioAssay, ICCB-Longwood Screening Facility, Harvard Medical School
